gsp ag – agonists of gsp mutant (McCune-Albright syndrome). actives 0.13% (n = 340,000). gsp mutant cells, cAMP HTRF, 30 min; control for the full effect not named in the record. Potency, µM (titrated, usually from 76.9 µM), for inactives: top-dose activation (cAMP increase), usual class: activators; active = well fitted activation curve with a large enough effect; inconclusive = small, poorly fitted or top-dose-only effect, or another doubt; inactive = no such curve, though single readings can be large or run the other way; cell line not stated here;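 further: phosphodiesterase inhibitor Ro 20-1724 added with compounds to block cAMP breakdown; potency means the concentration at half of the fitted maximal effect; nearly all actives have a fitted effect of over 60% in size; about a fifth of the inactives were tested at one dose only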
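Cells in DMEM/10% FBS with G418 were pretreated with compounds in DMSO plus […] (300 uM stock) for 30 min at 37C. cAMP was measured by HTRF (cAMP-d2 plus anti-cAMP antibody-K) after 30 min at room temperature.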
gsp antag – gsp mutant antagonism | actives 0.4% (n = 340,000) | AID 624288 | gsp-mutant cells, cAMP HTRF, 30 min; control for the full effect not named in the record | Potency, µM (top dose mostly 76.9 µM), inactives show at the highest dose activity change, negative = inhibition, most hits filed as inhibitors; active = falling curve of any shape with a large fitted effect; inconclusive = falling curve, mostly with a smaller effect; inactive = flat or rising curve; cell line not stated here;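 further: intracellular cAMP measured with PDE inhibitor Ro 20-1724 present during compound exposure; potency means the concentration at half of the fitted maximal effect; on the % scale 0 is the no-effect control and ±100 the full control effect; nearly all actives have a fitted effect of over 65% in size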
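G418-selected cells were plated in DMEM/10% FBS for 16-24 h at 37C, then treated with compounds plus the PDE inhibitor […] (300 uM solution added) for 30 min at 37C. Intracellular cAMP was measured by HTRF after 30 min lysis at room temperature.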
Menin-MLL FL inh – inhibitors of human menin-MLL interaction, wild-type MLL peptide. Fluorescence polarization, fluorescein-MLL peptide displacement from menin. 290,000 tested, under 10 active. AID 1766. FP activity change, % at 61.4 µM; inconclusive = falling polarisation curve, or a change in total fluorescence; inactive = total fluorescence flat and polarisation flat or rising; no compound was filed as active; the % refers to the polarisation; negative = inhibition;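 further: % of control where 0% means no effect; inhibitors lower the polarisation; unlabelled MLL peptide was the positive control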
ClpP mod – qHTS Assay for Activators of ClpP. ATP-dependent Clp protease proteolytic subunit (Bacillus subtilis (strain 168)), P80244. purified B. subtilis ClpP, FRET peptide cleavage, 20 min. Potency, µM (doses to about 57.5 µM), without a hit: top-dose activity change, negative = active. actives 1.9% (n = 340,000). AID 651965, 2013; active = well fitted falling curve with a large enough effect; inconclusive = small, poorly fitted or top-dose-only effect; inactive = no such curve, though single readings can be large or run the other way; further: potency means the concentration at half of the fitted maximal effect; the source files actives as falling curves though it sought activators and does not explain the sign; nearly all actives have a fitted effect of over 65% in size; many hits overshoot -100%
Target sequence (P80244 whole entry, looked up): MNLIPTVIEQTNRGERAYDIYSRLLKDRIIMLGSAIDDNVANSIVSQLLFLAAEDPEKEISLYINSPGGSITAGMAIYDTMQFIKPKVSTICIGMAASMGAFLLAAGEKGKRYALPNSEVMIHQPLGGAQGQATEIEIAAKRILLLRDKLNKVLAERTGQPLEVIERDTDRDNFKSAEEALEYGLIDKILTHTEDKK
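Purified B. subtilis ClpP, 10 microg/mL final in Tris/HCl pH8 with KCl, BSA, glycerol and Tween-20, cleaved an Abz/nitrotyrosine-quenched decapeptide. Fluorescence (ex 320, em 430) was read at 0 and 20 min at room temperature. Delta was normalized to 5.8 microM ADEP and DMSO/no-enzyme controls.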
Sfp PPTase inh – Sfp phosphopantetheinyl transferase inhibition; Biochemical Sfp PPTase activity, qHTS; Potency, µM, inactives show max response, negative = inhibition, actives largely listed as inhibitors; actives 3.5% (n = 310,000); active means well fitted inhibition curve with a large enough effect; inconclusive means small, poorly fitted or top-dose-only effect, or another doubt; inactive means no such curve, though single readings can be large or run the other way;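 further: the enzyme is Sfp with the accession as filed and its product quenches rhodamine fluorescence; potency means the concentration at half of the fitted maximal effect; 0% = enzyme reaction without inhibitor and -100% = no enzyme wells; top concentration of the series not given in the record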
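Reaction rates are the 30-min fluorescence difference (ex 525, em 598 nm) in wells containing 15 nM Sfp, 5 uM rhodamine-CoA and 12.5 uM BHQ-2-YbbR at pH 7.6 with 10 mM MgCl2.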
TRPV1 PAM – enhances activation of the human vanilloid receptor TRPV1; Q8NER1; TRPV1-expressing cells, Fluo-8 calcium influx, capsaicin EC20 potentiation; host cell line not named in the record; control for the full effect not named in the record; potentiation, % at 8.33 µM; actives 0.02% (n = 320,000); active means potentiation above 80%; inconclusive means 30% to 80%; inactive means below 30%; further: 0% is about no effect
Target sequence (Q8NER1 whole entry, looked up): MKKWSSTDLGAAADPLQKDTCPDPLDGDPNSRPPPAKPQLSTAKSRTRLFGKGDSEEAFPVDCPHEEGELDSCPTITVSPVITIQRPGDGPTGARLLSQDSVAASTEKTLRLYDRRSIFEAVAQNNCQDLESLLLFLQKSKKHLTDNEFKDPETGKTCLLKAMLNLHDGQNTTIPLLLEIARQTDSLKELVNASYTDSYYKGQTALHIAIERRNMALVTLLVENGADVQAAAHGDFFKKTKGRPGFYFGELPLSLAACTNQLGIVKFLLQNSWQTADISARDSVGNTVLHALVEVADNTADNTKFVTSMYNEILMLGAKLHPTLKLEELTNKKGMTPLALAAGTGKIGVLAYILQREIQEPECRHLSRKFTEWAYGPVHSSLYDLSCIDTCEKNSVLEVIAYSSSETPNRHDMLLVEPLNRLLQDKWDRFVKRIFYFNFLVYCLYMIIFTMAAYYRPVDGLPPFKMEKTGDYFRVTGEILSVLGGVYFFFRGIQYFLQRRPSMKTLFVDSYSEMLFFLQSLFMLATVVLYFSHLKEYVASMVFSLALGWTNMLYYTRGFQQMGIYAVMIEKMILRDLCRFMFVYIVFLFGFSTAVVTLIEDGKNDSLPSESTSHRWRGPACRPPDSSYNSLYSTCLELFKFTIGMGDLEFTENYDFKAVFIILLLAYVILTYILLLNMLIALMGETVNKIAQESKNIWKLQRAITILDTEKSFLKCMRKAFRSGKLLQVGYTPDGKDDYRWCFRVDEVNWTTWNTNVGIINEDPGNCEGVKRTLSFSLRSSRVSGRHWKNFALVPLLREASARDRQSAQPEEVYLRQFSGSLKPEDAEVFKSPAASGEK
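Fluo-8 calcium influx in TRPV1-expressing cells, kinetic read (ex 480/em 520 nm). Compound added and read 3 min for agonist activity, followed by capsaicin at EC20 final and 2 min further read for enhancement.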
CtBP-E1A inh – inhibitors of CtBP/E1A interaction; AlphaScreen GST-E1A/His-CtBP binding, 1536-well; active compounds read low; control for the full effect not named in the record; activity change, % (concentration not given with the values); actives 0.49% (n = 340,000); in the data active means activity change below about -65%; inconclusive means about -30% to -65%; inactive means above about -30%; further: on the % scale 0 is the no-effect control and ±100 the full control effect
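In 5 uL wells, 23 nL compound meets equimolar GST-E1A and His-CtBP (5X stock 125 nM each) for 2 h, 37 °C. Beads (5X, 50 ug/mL) then 1 h, 37 °C, dark.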
* = called active by the depositor; ? = inconclusive; · = no result given; & = joins results of further samples; [ ] = dose if it differs, or a comment.

SMILES	gsp ag	gsp antag	Menin-MLL FL inh	ClpP mod	Sfp PPTase inh	TRPV1 PAM	CtBP-E1A inh
CC(Nc1ccnc2cc(Cl)ccc12)c1ccc(S(N)(=O)=O)cc1 (stereo not given)	-9.0%[15.4 µM]	12.6%	2.0	-0.5%	9.9%	-8.4	-0.4
N#Cc1c(N)n(CCCN2CCOCC2)c2nc3ccccc3nc12	9.9%	12.5%	5.7	4.47µM*	6.5%	3.2	?
Cc1cc(C)nc(SCc2ccc3nonc3c2)n1	-46.9%[inhibitor]	3.4%	1.1	1.2%	?	25.1	0.0
COc1ccccc1N1CC(O)=C(c2nc3ccccc3s2)C1=N	21.2%	-16.1%	3.2	-28.1%	4.2%	-35.6	-20.0
CC(C)C(NS(=O)(=O)c1cccs1)C(=O)NCc1ccccc1Cl (stereo not given)	12.7%	-0.2%	8.0	·	8.2%	-0.1	-2.2
CC(=O)c1cccc(S(=O)(=O)N2CCN(CCOc3ccccc3)CC2)c1	-6.0%	5.7%	·	0.1%	·	-24.3	·
COc1ccc(C(=O)N[C@H](C(=O)NCc2ccco2)C(C)C)cc1	3.2%[15.4 µM]	7.3%	-1.0	0.3%	11.9%	15.0	5.4
Oc1ccc(C2Nc3cccc4cccc(c34)N2)cc1	16.4%	-1.6%	1.8	-29.0%	35.5µM*	25.5	·
CN1C(=O)C(CC(=O)Nc2ccc(F)cc2)N(CCCc2ccccc2)C1=S (stereo not given)	11.0%	-5.9%	4.6	0.1%	13.3%	-1.0	4.1
O=C(NC1CCCCC1)NC1(C(=O)NCCCN2CCOCC2)CCCCC1	-5.8%	-0.6%	0.0	0.8%	13.8%	-9.4	0.0
COc1nc(OC)nc(N2CCCCCC2)n1	-3.2%	6.3%	1.2	0.4%	-0.8%	26.2	6.1
CN(CC(=O)Nc1ccccc1C(F)(F)F)C(=O)CSc1nnc(-c2ccncc2)n1C	3.7%	-0.9%	·	-1.7%	·	·	·
COc1cc2oc(=O)c(Br)c(C)c2c(OC)c1OC	?	0.8%	-2.1	-2.0%	5.8%	6.4	-5.0
COc1ccc(OC)c(CNc2ccc3c(c2)nc(C)n3C)c1	3.7%[15.4 µM]	-5.7%	2.4	-0.9%	-3.4%	4.1	-1.0
CCOc1ccc(NS(=O)(=O)c2ccc(C(=O)N3CCC3)cc2)cc1	2.4%	-17.5%	·	0.8%	·	·	4.5
Cn1c(SCC(=O)Nc2ccc(N3CCOCC3)cc2)nnc1C1CC1	13.4%	2.4%	·	-7.3%	·	-1.0	0.0
O=C(c1cccs1)N1CCN(c2ncccn2)CC1	-0.6%	11.1%	0.9	-7.4%	14.7%	3.3	2.5
CSC1=NCCN1C(=O)c1ccco1	39.4%	2.9%	-1.3	-0.7%	10.9%	13.1	8.1
C#CC(C)(CC)NC(=O)Cn1nnc(-c2cccc(C(F)(F)F)c2)n1 (stereo not given)	31.2%	4.9%	0.8	·	-4.6%	2.0	-15.3
Cc1ccn2c(C=O)c(-c3ccc(F)cc3)c(C=O)c2c1	-4.1%	-16.7%	0.2	-0.6%	-8.8%	-0.1	8.5
Cc1noc(/C=C/N(C)C)c1S(=O)(=O)N1CCCC(C(=O)Nc2ccc(F)cc2F)C1 (stereo not given)	-9.1%	0.1%	·	0.9%&-0.3%	8.9%	11.5	-1.6
Cc1ccc(N(C(=O)c2csnn2)C(C(=O)NC(C)(C)C)c2cccs2)cc1 (stereo not given)	-20.9%	9.8%	-0.5	1.3%	0.2%	-6.5	8.5
COc1ccccc1C(=O)c1c(C)c(CCC#N)n2ccccc12	0.1%	3.2%	3.9	·	8.4%	0.9	-6.9
Cc1ccccc1NC(=O)Nc1ccccc1C(N)=O	?	0.0%	0.3	14.2%	9.6%	3.2	3.9
Cc1cccc(NC(=O)c2cc(S(=O)(=O)N3CCCC3)cn2C)c1	-57.5%	-5.0%	5.3	-4.4%	10.1%	13.2	-22.0
CCCSc1nnc2nc3c(nn12)c1ccccc1n3C	?	2.7%	4.2	-1.8%	22.9%	3.3	?
Cc1nc(Nc2cnc(/C=C/c3cc(C(=O)Nc4cccc(C(F)(F)F)c4)ccc3C)cn2)cc(N2CCNCC2)n1	·	0.5%	?	3.9%	50.1µM*	-10.8	13.9
Cc1cc(C)c(NC(=O)Cn2nnc(C(=O)NCCc3ccccc3)c2N)c(C)c1	-3.3%[15.4 µM]	14.4%	3.1	1.0%	23.6%	1.8	-0.2
COCCCNC(=O)Cn1cnc2sc(C)c(S(=O)(=O)N3CCN(c4ccccc4OC)CC3)c2c1=O	?	4.7%	-1.7	-2.5%	10.3%	14.2	5.8
CN1CCN(C/C(=C2/N=C(c3ccccc3)OC2=O)N(C)C)CC1	11.6%	2.1%	-2.9	-1.0%	-19.0%	-9.8	7.4
COc1cc2c(cc1OC)C(NNC(=O)c1ccc(Br)o1)=NC(C)(C)C2	0.6%	-11.1%	·	-3.1%	9.2%	21.5	·
O=C(COc1ccccc1C(=O)O)Nc1nc2ccc([N+](=O)[O-])cc2s1	0.0%[15.4 µM]	?	7.6	·	5.9%	13.9	-10.5
COc1ccccc1C(=O)NC(=O)COC(=O)c1cccc(C)c1O	-62.7%[inhibitor]	-8.3%	·	-15.0%	·	?	3.4
CCN1CCCC1CNC(=O)c1cn(C)c2ccc(S(=O)(=O)N3CCCCCC3)cc2c1=O (stereo not given)	?	8.6%	7.2	-2.6%	7.7%	5.7	-4.4
COCC(O)CSc1c([N+](=O)[O-])nc(C)n1Cc1ccc(OC)c([N+](=O)[O-])c1 (stereo not given)	0.4%	1.1%	2.1	1.3%	2.3%	0.1	-5.2
Cc1nc(C(C)N(C)Cc2nc(-c3ccc4c(c3)OCO4)no2)c(C)s1 (stereo not given)	-8.9%[15.4 µM]	12.3%	-5.6	·	-15.1%	-6.1	-14.0
Cc1ccc(CN(C(=O)c2ccco2)C(C(=O)NC2CCCC2)c2cccnc2)cc1 (stereo not given)	10.8%[15.4 µM]	-11.3%	-4.5	1.1%	17.6%	-14.3	-2.0
CC(C)C(NS(=O)(=O)c1cccc2nsnc12)C(=O)NC1CCCCC1 (stereo not given)	0.8%	1.4%	·	-2.9%	-1.2%	-12.2	-2.1
CNC(=S)N/N=C/c1cn(Cc2ccc(F)cc2)c2ccccc12	0.0%	30.5%[activator]	3.9	-11.0%	4.7%	-1.5	-13.5
CCCn1c(SCC(=O)c2cc(C)c(C)cc2C)n[nH]c1=O	-17.1%	-21.0%	2.0	0.5%	11.1%	-3.6	2.8
O=C(c1ccc(CS(=O)(=O)Cc2ccc(Cl)cc2)o1)N1CCCC1	?	-2.8%	-0.6	-1.6%	16.1%	8.8	2.7
CCC(=O)N1CCC2(CC1)Oc1ccc(F)cc1C(=O)C21CC(c2ccccc2)=NO1 (stereo not given)	·	-9.9%	-1.0	0.1%	-1.2%	4.8	-0.1
CC1(C)Cc2c(sc(NC(=O)C(=O)N3CCN(CCO)CC3)c2C(N)=O)CO1	25.1%	-14.0%	·	-1.4%	-9.6%	-4.9	·
NC(=O)COC(=O)CNC(=O)c1ccc(Cl)cc1	-23.2%	12.5%	4.1	0.4%	11.6%	8.7	3.5
O=C(CNC(=O)c1cccs1)N/N=C/c1c(F)cccc1Cl	7.1%	5.0%	·	-5.5%	9.3%	15.7	-4.6
CCN(CC)c1ccc(C=C(c2nnnn2-c2ccc(C)cc2)c2nnnn2-c2ccc(C)cc2)cc1	8.9%	-8.3%	?	-0.4%	19.3%	9.0	2.8
COc1ccc(S(=O)(=O)N2CCCCC2)cc1NC(=O)[C@@H]1CCCN1C(=O)c1cccs1	?	-10.8%	·	-3.1%	·	19.8	-15.5
CCS(=O)(=O)C1=NN2C(=N)/C(=C\c3ccc(OC(=O)c4ccco4)c(OC)c3)C(=O)N=C2S1	-3.6%	3.2%	·	-11.4%	-9.6%	-4.9	-16.3
COc1ccc(C2N(c3cc(C)on3)C(=O)C3CCCN32)cc1OC (stereo not given)	-27.3%	16.8%	0.0	-3.8%	2.4%	-1.3	-1.3
COc1ccc(/C=C/C(=O)Nc2ccc3nc4n(c(=O)c3c2)CCCC4)cc1	9.7%	-2.0%	-2.8	1.5%	21.3%	2.5	-3.9

Next section.
SMILES	gsp ag	gsp antag	Menin-MLL FL inh	ClpP mod	Sfp PPTase inh	TRPV1 PAM	CtBP-E1A inh
C=CCOC(=O)C1=C(C)OC(N)=C(C#N)C1c1c(C)nn(-c2ccccc2)c1Cl (stereo not given)	-18.4%	-14.4%	0.4	-9.2%	3.0%	-9.6	0.0
CCOC(=O)C(NC(=O)c1ccccc1)(Nc1cc(C)on1)C(F)(F)F (stereo not given)	-2.6%	18.7%	-0.5	-3.4%	15.0%	7.5	2.6
COC(=O)C1C(=O)NC(SC)=C(C#N)C1c1ccccc1F (stereo not given)	-13.2%	5.5%	0.8	-1.0%	1.7%	-16.4	5.1
Cc1ccccc1N1CCN(Cc2c(C#N)c3ccccc3n2C)CC1	-26.3%	-11.8%	3.4	-0.3%	6.0%	18.6	52.0
CCOc1ccc(NC(=O)CN(C)C(=O)C(C)Oc2ccc(Cl)cc2)cc1OCC (stereo not given)	0.7%	-8.0%	·	-2.7%	·	·	-4.8
Cc1cc(C)c2c(N)c(C(=O)NN3CC(=O)N(c4ccccc4F)CC3=O)sc2n1	-12.8%	6.5%	3.5	?	7.8%	-4.2	-1.8
COc1cc(C(Nc2ccc3c(c2)OCO3)C(=O)NC2CCCCC2)cc(OC)c1OC (stereo not given)	?	2.7%	-1.7	-0.8%	12.6µM*	-21.6	-1.6
O=C(NCCc1ccccc1F)C1CCC(=O)N(Cc2ccc(Cl)cc2)C1 (stereo not given)	-44.2%[inhibitor]	4.7%	-6.2	-2.9%	-1.5%	-11.4	-16.3
CCOC(=O)C1=CN(Cc2cccc(-c3cccnc3)c2)S(=O)(=O)N(CC)C1C (stereo not given)	·	-25.6%	·	0.2%	·	·	2.1
CSc1ccc(CNC(=O)c2ccc(NC(=O)C3=CSCCO3)cc2)cc1	-26.0%	-9.4%	·	-9.8%	-1.2%	-5.1	1.0
Fc1ccccc1CNc1ncnc2sccc12	-22.2%	-14.6%	-2.7	·	2.7%	11.7	3.6
CC(C)n1c(SCc2cc(=O)[nH]c3ccccc23)nc2c1c(=O)n(C)c(=O)n2C	13.2%	9.2%	7.5	-2.0%	7.6%	-11.4	0.5
